Screens: PubChem BioAssay, Broad Institute
p53 PUMA act – mutant p53 pathway reactivation. 28,000 compounds, 1.5% hits. activation, % at 9.98 µM. SW480 PUMA-promoter luciferase. AID 624151; in the data active means activation above about 52%
An asterisk follows results filed as active; & = joins results of further samples.

| no. | SMILES | p53 PUMA act |
| --- | --- | --- |
| 1 | NC(=O)C1(N2CCCCC2)CCN(CC(=O)Nc2ccc(Oc3ccccc3)cc2)CC1 | 8 |
| 2 | O=C(NCc1ccco1)c1n[nH]c(=O)c2ccccc12 | 3 |
| 3 | Nc1nc(SCc2ccc3c(c2)OCCO3)n[nH]1 | 27 |
| 4 | CS(=O)(=O)Nc1ccc(C(=O)NCc2ccco2)cc1 | -15 |
| 5 | CCOC(=O)Nc1ccc2c(c1)N(C(=O)CCN(C)C)c1ccccc1CC2 | 0 |
| 6 | COc1ccc([C@@]2(O)c3c(ccc(CC=C(C)C)c3O)NC(=O)[C@@H]2OC)cc1 | 3 |
| 7 | Cc1ccc(-c2csc3ncnc(SCC(=O)c4ccc5c(c4)OCCO5)c23)cc1 | 13 |
| 8 | OC(CCN1CCCCC1)(c1ccccc1)c1ccccc1 | -2 |
| 9 | CC(C)(C)NC[C@H](O)COc1nsnc1N1CCOCC1 | 9 |
| 10 | Cc1noc(C)c1NC(=O)N(C)C[C@@H]1Oc2ccc(NS(=O)(=O)c3cccs3)cc2C(=O)N([C@H](C)CO)C[C@H]1C | 4 |
| 11 | CN(C)CCC(c1ccc(Cl)cc1)c1ccccn1 (configuration not stated) | 5 |
| 12 | Cc1nnc(SCC(=O)Nc2cc(C(F)(F)F)ccc2N2CCOCC2)o1 | -5 |
| 13 | Cc1ccc(OCC(=O)NCc2ccco2)cc1C | 7 |
| 14 | O=C(O)c1ccccc1C(=O)Nc1ccc(S(=O)(=O)Nc2nccs2)cc1 | 1 |
| 15 | O=C(CSC1CC(=O)N(c2ccc(C(=O)O)cc2)C1=O)Nc1ccc2ccccc2c1 (configuration not stated) | -11 |
| 16 | CC1=CCC2C(C)(CC[C@H](O)C2(C)C)C1COc1ccc2ccc(=O)oc2c1 (some centres not stated) | -18 |
| 17 | N#C/C(=C/c1ccc(O)c(O)c1)C(=O)NCc1ccccc1 | 13 |
| 18 | COc1ccc(C)cc1N(CC(=O)O)S(=O)(=O)c1ccc(C)cc1 | -3 |
| 19 | c1ccc(-c2n[nH]c3c2oc2ccccc23)cc1 | 5 |
| 20 | O=C1OC(CN2CCOCC2)CN1/N=C/c1ccc([N+](=O)[O-])o1 (configuration not stated) | -1 |
| 21 | CN(C)S(=O)(=O)c1ccc(Cl)c(C(=O)Nc2ccccc2[N+](=O)[O-])c1 | 7 |
| 22 | Cc1noc(C)c1NC(=O)N(C)C[C@H]1Oc2ccc(NS(=O)(=O)c3cccs3)cc2C(=O)N([C@@H](C)CO)C[C@H]1C | 1 |
| 23 | CCCC(=O)Nc1ncnc2c1ncn2C1OC2COP(=O)(O)OC2C1OC(=O)CCC (configuration not stated) | 15 |
| 24 | N#Cc1cc2[nH]c(=O)c(=O)[nH]c2cc1[N+](=O)[O-] | -1&6 |
| 25 | O=C(O)C1CCCCC1C(=O)Nc1ccc(S(=O)(=O)N2CCOCC2)cc1 (configuration not stated) | -10 |
| 26 | Cc1ccc2cccc(OCc3nnc(SCC(=O)O)n3C)c2n1 | -16 |
| 27 | CCOC(=O)Cc1nnc(Nc2cccc(C)c2)c2ccccc12 | 10 |
| 28 | COCCCCC(=NOCCN)c1ccc(C(F)(F)F)cc1 | 9 |
| 29 | CC[C@H](C)C(=O)O[C@H]1C[C@@H](C)C=C2C=C[C@H](C)[C@H](CC[C@@H]3C[C@@H](O)CC(=O)O3)[C@H]21 | 1 |
| 30 | Cc1ccc(NC(=O)CC2NCCNC2=O)cc1Cl (configuration not stated) | 1 |

| no. | SMILES | p53 PUMA act |
| --- | --- | --- |
| 31 | C[C@H](CO)N1C[C@H](C)[C@@H](CN(C)Cc2ccc3c(c2)OCO3)Oc2ccc(NC(=O)Nc3ccccc3)cc2CC1=O | -10 |
| 32 | CCc1nc(SCC(=O)Nc2ccc([N+](=O)[O-])cc2)n[nH]1 | -1 |
| 33 | COC(=O)c1ccc(Cl)c(NC(=O)CSc2ncn[nH]2)c1 | 15 |
| 34 | O=C(CCN1C(=O)c2ccccc2C1=O)Nc1ccc(-c2nc3ccccc3s2)cc1 | 2 |
| 35 | COc1ccc(S(=O)(=O)N2Cc3ccccc3CC2C(=O)O)cc1OC (configuration not stated) | 4 |
| 36 | Cc1cccc(NC(=O)CC2NCCNC2=O)c1 (configuration not stated) | 2 |
| 37 | COC(=O)c1c(NC(=S)Nc2cc(OC)c(Cl)cc2OC)sc2c1CCCCC2 | 1 |
| 38 | C[C@H](CO)N1C[C@H](C)[C@H](CN(C)Cc2ccc(Cl)c(Cl)c2)Oc2ccc(NC(=O)Cn3cnnn3)cc2C1=O | -7 |
| 39 | CS(=O)(=O)N(CC(=O)Nc1ccc(F)c(F)c1)c1cccc([N+](=O)[O-])c1 | -5 |
| 40 | COc1cccc(C(=O)COc2cccc(NC(=O)c3ccco3)c2)c1 | 19 |
| 41 | COc1ccc(-c2noc(CSc3nc4ccccc4c(=O)n3-c3ccccc3)n2)cc1OC | -2 |
| 42 | CC1(C)CC(=O)c2ccc(O)cc2O1 | 2 |
| 43 | COc1ccc(-c2nc3ccccc3c(=O)n2CCCN2CCOCC2)cc1 | 8 |

The list is partial; most or all hits stand in other tables.
